BmaI1: BmaI1 acyl-homoserine lactone synthase inhibition – biochemical, fluorescence intensity, with counterscreen (AID 720554) | inhibition, % | BmaI1 enzyme assay, fluorescence intensity; stronger effect = higher value; test concentration not given here; a few actives read low; strong numbers were not always called active | 12,000 compounds, 0.4% hits;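 active means both replicates within 2 robust z-scores of the inhibited control and a quiet counterscreen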;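 further: 0% = uninhibited enzyme and 100% = inhibited control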
BmaI1 counterscreen: further read-out of BmaI1, marked with its call; inhibition, %; measured here: counterscreen; design of the counterscreen not given here;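 first of two replicates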
Numbers without * were called inactive. Some of the compounds tested, so the mix of outcomes need not match the whole.

SMILES	BmaI1	BmaI1 counterscreen
CC(C)C(NC(N)=O)C(=O)O (centres undefined)	1	9
NC(=O)NCCc1cccs1	-1	-2
COc1ccc(CCN=C2SCCN2C(=O)COc2ccccc2C#N)cc1	28	12
NNC(=O)c1ccc(CS(=O)(=O)c2ccccc2)o1	26	-44
O=C(Cc1n[nH]c(=O)c2ccccc12)NCCN1C(=O)S/C(=C\c2ccc(F)cc2)C1=O	15	-4
CCOC(=O)C1=C(CC)Nc2ccccc2N=C1N	-8	-14
Cc1ccc(S(=O)(=O)Nc2ccc(C(O)(C(F)(F)F)C(F)(F)F)cc2)cc1	13	4
O=C(CN1CC(=O)Nc2ccccc21)Nc1ccc2c(c1)OCCCO2	-24	-25
CC(C)n1ncc2c(C(=O)NC3=NCCS3)cc(-c3ccccc3)nc21	12	7
COC(=O)c1cc(OC(=O)c2ccc(=O)[nH]c2)cc(C(=O)OC)c1	6	4
CC(NCC(=O)Nc1ccccc1C(=O)NC1CC1)c1ccc(F)cc1 (centres undefined)	18	10
COc1ccc(/C=C/C(=O)N2CCNC(=O)C2)c(OC)c1	16	6
O=C(c1cc(-c2nnc(-c3ccc(Cl)cc3)o2)n(C2CC2)c1)c1ccccc1O	13	8
O=C(COC(=O)CCc1c[nH]c2ccccc12)Nc1cc2[nH]c(=O)[nH]c2cc1Br	12	4
O=C(COC(=O)C1=COCCO1)Nc1ccccc1	-11	-10
Cc1ccc(S(=O)(=O)N2CCC[C@H]2C(=O)Nc2ccc(-c3nnc4n3CCCCC4)cc2)cc1	6	2
Cc1ccc2nc(SCc3nc4ccccc4c(=O)n3CC#N)[nH]c2c1	14	9
CC1(C)O[C@@H]2C[C@H]3[C@@H]4C[C@H](F)C5=CC(=O)C=C[C@]5(C)[C@H]4[C@@H](O)C[C@]3(C)[C@]2(C(=O)CO)O1	11	16
CCn1c(SC/C(O)=C(\C(=O)OC)c2nc3ccccc3[nH]2)nnc1-c1ccccc1OC	14	8
Cc1ccc(-n2c(SC3CCOC3=O)nc3ccccc32)cc1 (centres undefined)	4	2
COc1cccc2c1C(=O)c1c(O)c3c(c(O)c1C2=O)C[C@@](O)(C(=O)CO)C[C@@H]3O[C@H]1C[C@H](N)[C@@H](O)[C@H](C)O1	66	-12
O=C(CSc1nnc2ccccn12)Nc1ccc(N2CCOCC2)cc1	19	-1
O=C(CN1C(=O)c2ccccc2C1=O)OCC(=O)c1ccc[nH]1	15	4
C=CCNC(=O)Cn1nnc(-c2ccc(C)cc2)n1	12	6
Cc1ccnc2nc(C(=O)OCC(=O)NCc3cccc(Cl)c3)nn12	3	10
Continuation.
SMILES	BmaI1	BmaI1 counterscreen
Cc1cc(C(=O)Cn2cnnc2C#N)c(C)n1-c1ccc(OC(F)(F)F)cc1	15	9
CN(CC(=O)Nc1ccccc1Sc1ccccc1)C1CCS(=O)(=O)C1 (centres undefined)	5	4
COc1cc(C(=O)OCc2nnc(-c3ccccc3)o2)ccc1OCC(=O)Nc1ccc(F)cc1	-7	-6
CCCn1c(=O)n(C)c(=O)c2c(SCc3nc(-c4cccc(Cl)c4)no3)nc(CC(C)C)nc21	13	1
NC(=O)OCCCc1ccccc1	0	3
COc1ccc(C2=NCC(CSc3nnc(C(C)N(C)C)n3-c3ccccc3)S2)cc1 (centres undefined)	22	12
CCc1ccc(OCC(O)CN2CCN(CC)CC2)cc1 (centres undefined)	-10	-10
CC1=CC=CC2C(=O)/C(=C\c3sc(=S)[nH]c3O)C(=NCCCn3ccnc3)N=C12 (centres undefined)	20	8
CCN(CC)S(=O)(=O)c1ccc2c(c1)nc(CCC(=O)Oc1ccc3c(c1)OCO3)n2CC	4	-4
CC(=O)NCc1ccc(C(=O)Cn2nc(C(=O)O)c3ccccc3c2=O)o1	4	8
CCCCSc1ncnc2sccc12	8	11
O=C(OCCOc1ccc(Cl)cc1)c1ccc(O)cc1O	34	-1
O=C(O)c1cc2c(cc1NC(=O)C13CC4CC(CC(C4)C1)C3)OCCCO2	29	8
CC(=O)Oc1cc(C)ccc1C(C)C	8	1
CCC1=C[C@H]2CN(C1)Cc1c([nH]c3ccccc13)[C@@](C(=O)OC)(c1cc3c(cc1OC)N(C)[C@H]1[C@@](O)(C(=O)OC)[C@H](OC(C)=O)[C@]4(CC)C=CCN5CC[C@]31[C@@H]54)C2	8	4
Cc1cc(C(=O)COC(=O)[C@@H]2CCCN2C(=O)c2cccs2)c(C)n1-c1ccc2c(c1)OCCO2	6	4
CCC[C@@H]1C[C@@H](C(=O)N[C@@H]([C@H]2O[C@H](SC)[C@H](O)[C@@H](O)[C@@H]2O)[C@@H](C)O)N(C)C1	8	15
O=C(Nc1ccccc1)N1CCC(C(=O)N2CCc3ccccc3C2)CC1	-12	-10
O=C(CSc1nc2ccccc2c(=O)n1C1CCCC1)Nc1ccc2c(c1)OCCO2	28	6
COc1ccc(-c2nn(-c3ccccc3)cc2C(=O)Nc2ccc3[nH]c(=O)[nH]c3c2)cc1	8	8
O=C(OCc1nnc(-c2ccccc2)o1)c1cccc(S(=O)(=O)N2CCCC2)c1	16	14
Cc1ccccc1Nc1nc(N)nc(CN2C(=O)CS/C2=C\C(=O)C(C)(C)C)n1	16	18
CCCn1c(SCC(=O)Nc2ccccc2)n[nH]c1=O	6	0
O=c1c(=O)n(Cc2ncc(-c3ccccc3)o2)c2cc(Cl)ccc2n1Cc1ccccc1	12	12
c1ccc(-c2ccc(Oc3cnccn3)cc2)cc1	3	8

Some values from the list.
Cc1cc(C(=O)Cn2cnnc2C#N)c(C)n1-c1ccc(OC(F)(F)F)cc1 in BmaI1 shows 15
CN(CC(=O)Nc1ccccc1Sc1ccccc1)C1CCS(=O)(=O)C1 (centres undefined) in BmaI1 counterscreen shows 4
COc1ccc(C2=NCC(CSc3nnc(C(C)N(C)C)n3-c3ccccc3)S2)cc1 (centres undefined) in BmaI1 shows 22

Compound profiles, as listed above. Screens in order: BmaI1, BmaI1 counterscreen
Record of Cc1cc(C(=O)Cn2cnnc2C#N)c(C)n1-c1ccc(OC(F)(F)F)cc1 → 15, 9
Record of CC1=CC=CC2C(=O)/C(=C\c3sc(=S)[nH]c3O)C(=NCCCn3ccnc3)N=C12 (centres undefined) → 20, 8
Record of c1ccc(-c2ccc(Oc3cnccn3)cc2)cc1 → 3, 8

(more compounds)
SMILES	BmaI1	BmaI1 counterscreen
Cc1ccc(N2CC(C(=O)OCC(=O)c3ccc[nH]3)CC2=O)cc1 (centres undefined)	12	1
CC(c1nnc(SCc2ccc(C#N)cc2)n1-c1ccc(Cl)cc1)N1CCCCC1 (centres undefined)	14	-2
COC(=O)C(Cc1c[nH]c2ccccc12)NS(C)(=O)=O (centres undefined)	-7	-7
O=C(CCc1ccco1)Nc1ccc(-c2nnc3n2CCCCC3)cc1	14	4
O=C(CSc1nc(-c2ccccc2)c(-c2ccccc2)o1)NC1CCS(=O)(=O)C1 (centres undefined)	6	4
Cc1ccc(OCC(O)CN2CC(C)CC(C)C2)cc1 (centres undefined)	6	-2
O=C1CC2(CCCC2)CC(=O)N1CCCCN1CCN(c2ncccn2)CC1	0	0
CCc1c(C)[nH]c2c1C(=O)C(CN1CCOCC1)CC2 (centres undefined)	-11	-2
Cc1ccc(CN(C)Cc2cc(=O)oc3cc4c(cc23)CCC4)o1	12	5
COc1ccc(CNC(=O)c2c(-n3cccc3)sc3c2CCCC3)cc1	-8	-8
O/N=C1/C2C3CC4C2/C(=N/O)C2C1C3C42 (centres undefined)	8	0
Cc1n[nH]c(C)c1S(=O)(=O)N1CCC(C(=O)OCc2ccc(C(C)(C)C)cc2)CC1	20	8
COc1cc(CC(=O)OCC(=O)N2CCCC2=O)cc(OC)c1OC	8	20
CCCn1c(SCC(=O)OC(C)(C)C)n[nH]c1=O	10	1
CCOc1ccc(S(=O)(=O)Nc2ccccc2C(=O)Nc2nn[nH]n2)cc1	12	-6
CC1CCCN(C(=O)COC(=O)c2cc(S(=O)(=O)N3CCCC3)ccc2O)C1 (centres undefined)	16	8
Cc1ccc(/C=C/C(=O)O)c(Br)c1	20	8
CSc1nnc(SC(C)C(=O)Nc2c(C)cccc2C(C)C)n1N (centres undefined)	14	12
COc1ccc(CNC(=O)CCCn2c(=O)oc3ccccc32)cc1	5	8
CCOc1ccc(NC(=O)CC2(CC(=O)O)CCCC2)cc1	20	11
Cc1cccc(C(=O)NCC(=O)N(C)Cc2nc3ccccc3c(=O)[nH]2)c1	13	13
CC(=O)Nc1ccc(OCc2cn3cc(C)ccc3n2)cc1	22	2
CC(Sc1nnc(-c2ccco2)o1)C(=O)NC1CCCC1 (centres undefined)	-9	-10
C/C(=N\NC(=O)NC1CCCCC1)c1ccc2c(c1)OCO2	16	8
O=C(Oc1ccc2c(c1)OCO2)C1CCCCN1S(=O)(=O)c1ccccc1 (centres undefined)	12	0

Random excerpt: two records from the list, in no set order.
SMILES	BmaI1	BmaI1 counterscreen
C=CCNC(=O)Cn1nnc(-c2ccc(C)cc2)n1	12	6
NNC(=O)c1ccc(CS(=O)(=O)c2ccccc2)o1	26	-44

(continued)
SMILES	BmaI1	BmaI1 counterscreen
COc1ccc(CN(C)C(=O)C2CC(=O)N(c3ccc4c(c3)OCCO4)C2)c(OC)c1 (centres undefined)	9	0
O=c1[nH]nc2n1CCCCC2	-7	-4
O=C(COC(=O)c1ccccc1)Nc1cccc2nsnc12	9	11
O=C1CN(C(=O)c2ccc(Cl)c(S(=O)(=O)N3CCCCCC3)c2)c2ccccc2N1	4	-8
O=C(N/N=C1\CCc2ccccc21)c1ccccn1	17	5
C=CCN(CC=C)C(=O)CSc1nc(N)cc(N)n1	15	6
Cc1noc(C)c1C(=O)OCC(=O)NCC12CC3CC(CC(C3)C1)C2	9	-1
CCc1cccc(CC)c1NC(=O)c1c(Cl)nc2sccn12	-4	1
COc1ccc2nc(C)cc(NCC3CCCO3)c2c1 (centres undefined)	11	6
Cc1nn(C)c(C)c1/C=N/NS(=O)(=O)c1ccccc1	9	6
Cc1ccc(C2=NN(C(=O)CSc3ccccn3)C(c3ccco3)C2)o1 (centres undefined)	6	-4
COc1cc2c(cc1OC)C(c1cccs1)N(C(=O)c1cccs1)CC2 (centres undefined)	16	6
COc1cc(C(=O)Cc2nccn2C)cc(OC)c1OC	-16	-16
CN(C)Cn1nc(-c2ccccc2)n(-c2ccccc2)c1=S	71	50
CN1C=CC=C/C1=C(/C#N)C(=O)Nc1ccc(Cl)cc1	12	26
CC(C)C(NS(=O)(=O)c1ccc2c(c1)OCCO2)C(=O)OCc1nc2ccsc2c(=O)[nH]1 (centres undefined)	14	12
CC1Cc2ccccc2N1CC(=O)NCc1ccc2c(c1)OCO2 (centres undefined)	48	-28
COc1ccc(CCNC(=O)CN(C)c2ccccc2)cc1OC	19	-2
Cc1ccnc2c1NC(=O)c1cccnc1N2C1CC1	-2	-4
O=C(C1CCN(S(=O)(=O)/C=C/c2ccccc2)CC1)N1CCN(c2ccccn2)CC1	14	-2
Nc1nc(CN2CCN(c3ccccc3)CC2)nc(Nc2ccccc2)n1	18	3
Cn1cccc1C(=O)Nc1ccc(S(=O)(=O)N2CCOCC2)cc1	3	0
O=C(CCS(=O)(=O)c1ccc(F)cc1)N1CCCC1c1nc2ccccc2s1 (centres undefined)	12	6
N#CC1(NC(=O)CN2CCN(c3ccccc3Cl)CC2)CCCC1	12	4
CCc1nc2c3ccccc3ncn2n1	10	0
The list continues:
SMILES	BmaI1	BmaI1 counterscreen
Cc1ccccc1C(=O)N1CCC(C(=O)N2CCCc3ccccc32)CC1	18	8
Cc1ccc(-c2nnc(SCc3ccc(C#N)cc3)o2)cc1	10	7
O=C(OCC(=O)N1CCCC1)C1CCN(S(=O)(=O)c2cccs2)CC1	8	5
COCCCn1cnnc1SC(C)C(=O)Nc1ccc(S(=O)(=O)N2CCOCC2)cc1 (centres undefined)	14	7
CC1CCCCC12NC(=O)N(CCCCN1C(=O)c3ccccc3C1=O)C2=O (centres undefined)	15	6
CCNC(=O)NC(=O)Cn1cc(C(F)(F)F)ccc1=O	12	14
Cc1cc2nc(Oc3ccc(S(=O)(=O)N4CCOCC4)cc3)c3ccccc3n2n1	4	1
CC(Sc1nnc(COc2ccccc2F)n1-c1ccccc1)C(=O)NC(N)=O (centres undefined)	4	4
CC(C)N(Cc1ccccc1)S(=O)(=O)c1ccc2c(c1)OCCO2	5	1
CC(C(=O)O)c1ccc(CC2CCCC2=O)cc1 (centres undefined)	2	4
CC[C@@H]1C=CC=CC[C@H](C)[C@@H](O)[C@@H](C)C(=O)[C@H](C)[C@@H](O)[C@H](C)C(=O)[C@H](C)[C@@H](O)[C@H](C)C=CC(=O)O[C@H]2[C@@H](C)[C@@H](CC1)O[C@@]1(CC[C@@H](C)[C@@H](C[C@H](C)O)O1)[C@@H]2C	0	0
Oc1nc(-c2cccc(C(F)(F)F)c2)n2ccncc12	78	50
CCOc1ccc(-c2nnc(SC(F)F)n2CCC(=O)O)cc1	7	-2
CC/C(=N\NC(=O)c1cc(-c2ccco2)nc2ccccc12)c1ccc(F)cc1	2	-10
CCn1c(=O)c(=O)[nH]c2cc(C(=O)NCc3ccc(F)cc3)ccc21	16	1
COc1ccc(/C=N/OCC(=O)N2CCN(C)CC2)cc1	6	1
O=C(O)CNC(=O)c1ccc(N2CCCC2=O)cc1	0	-2
CCOC(=O)C1=C(CSc2nnnn2-c2ccccc2OCC)NC(=O)NC1c1ccccc1 (centres undefined)	9	10
CN(Cc1c(F)cccc1Cl)C(=O)Cc1ccc2c(c1)OCCO2	-4	-2
Cc1ccc(N2C(=O)C(C(C)C)NC2=S)cc1 (centres undefined)	-26	-20
CC(C)(C)c1ccc(C(=O)NCCn2c(N)c(C#N)c3nc4ccccc4nc32)cc1	15	8
CC(C)(C)OC(=O)n1cc(C(=O)c2ccccc2O)cn1	6	6
Cc1cccc(C)c1OC(=O)C1=CN2CCS(=O)(=O)N=C2C=C1	0	1

Compound activity from PubChem BioAssay.
